AID504770: growth inhibitors of E. coli YBA685 in a screen for V. cholerae RctB (chromosome II replication) inhibitors; E. coli YBA685 rctB-dependent plasmid, OD600 growth, 3 h; active compounds read low; z-score (no concentration beside the values); 130,000 tested, 0.27% active; AID 504770;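 active = z-score under -2 on both plates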;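 also: wells of about 30 µL received 100 nL stock; score is relative to mean and SD of the test wells; the first replicate is given; strong numbers were not always called active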
Ba CapD inh: inhibitors of Bacillus anthracis CapD enzyme | purified CapD enzyme, fluorescence intensity read-out; active compounds read low; some hits fall short of the stated cut | z-score (concentration not given with the values) | 140,000 tested, 0.23% active;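 active = z-score under -4 in either of two replicates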;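 also: stock transfer was 100 nL into about 40 µL; score is relative to mean and spread of the plate; one replicate is shown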
An asterisk follows results filed as active; . = not tested or not shown.

Each structure is followed by: AID504770	Ba CapD inh
CNC(=S)N(Cc1ccco1)C1CC(=O)N(c2ccccc2)C1=O (stereo not drawn)
 : 0.1	0.29
CCOC(=O)c1cnc2c(c(C3CC3)nn2C)c1N1CCCCC1
 : -0.5	-0.6
COc1ccc(C2SC(C)C(=O)N2CCCn2ccnc2)cc1OC (stereo not drawn)
 : 0.9	.
CCc1nc2ccccc2nc1N1CCN(C(=O)C(C)(C)C)CC1
 : 0.05	2.2
Cc1onc(-c2ccccc2)c1C(=O)N1CCCN2C(=O)c3ccccc3C21 (stereo not drawn)
 : 2.1	0.34
CC(=O)Nc1ccc(S(=O)(=O)N2CCN(c3cc(C)ccc3C)CC2)cc1
 : .	0.04
CCOc1ccccc1C(=O)N[C@H](C(=O)Nc1c(N)nc(N)n(C)c1=O)C(C)C
 : -0.15	.
Cc1nn(-c2ccccc2)c(C)c1NC(=O)Cc1cccs1
 : -0.65	-0.88
CCOC(=O)C1=C(C)N=c2s/c(=C/c3cc(Br)cc([N+](=O)[O-])c3O)c(=O)n2C1c1ccccc1 (stereo not drawn)
 : .	-1.1
CC(=O)Nc1ccc(S(=O)(=O)n2cnc3cc(C)c(C)cc32)cc1
 : -0.2	.
OC(c1ccccc1)c1nc2ccccc2[nH]1 (stereo not drawn)
 : -0.35	0.28
COc1ccc(C(=O)Nc2ccc3oc(Cc4ccc(Cl)cc4)nc3c2)cc1OC
 : .	0.56
N/C(=C\C(=O)c1c(O)c(F)c(F)c(F)c1F)C(=O)O
 : -0.45	-3.5
CC1(C)CC(=O)c2c(oc3ccc(NS(=O)(=O)c4ccccc4)cc23)C1
 : .	-0.13
CCc1ccc(OCc2ccc(C(=O)O)cc2)cc1
 : -0.25	0.025
Cc1cc(C(=O)N2CCN(Cc3ccc4c(c3)OCO4)CC2)nn1C
 : 0.2	-0.32
COc1cccc(OC)c1CN1CCC(N(C)C(=O)Nc2ccc(F)cc2F)CC1
 : .	-0.055
CCc1ccc(NC(=O)CCCn2nc(CC)n3c(cc4occc43)c2=O)cc1
 : -0.2	-1.7
Cc1cccc(CN2C(=O)/C(=C\c3ccc(C(=O)N4CCN(C(=O)c5ccco5)CC4)cc3)Oc3ccccc32)c1
 : -1.4	20
O=C(CC12CC3CC(CC(C3)C1)C2)NCc1ccc2c(c1)OCO2
 : 1.2	-1.6
COC(=O)c1sccc1OCc1nnc(-c2ccc(C)cc2)o1
 : 0.15	0.065
CC1Cc2nn(-c3ccccc3)c(-c3cccnc3)c2C(=O)C1C (stereo not drawn)
 : -0.8	-0.025
CC(=O)Nc1ccc(C)c(NC(=S)Nc2ccc(Cl)c(Cl)c2)c1
 : -1.1	122
O=C1NC2(CCc3ccccc32)C(=O)N1Cc1ncc(-c2ccccc2)o1 (stereo not drawn)
 : 1.3	.
FC(F)(F)c1cccc(COn2c(-c3ccccc3)nc3ccccc32)c1
 : .	0.76
O=C(CCN1CCOCC1)c1ccc2c(c1)OCCO2
 : .	0.07
CCOC(=O)c1cc(C(=O)O)nn1C
 : 0.05	.
O=C(OCCc1ccc(Cl)cc1)N1CCCN(Cc2ccc(Cl)c(Cl)c2)CC1
 : .	-0.46
CCC1(C)Cc2ccccc2-c2nc3n(c(=O)c21)CC(c1ccccc1)S3 (stereo not drawn)
 : .	1
O=C(NC(CO)C(=O)O)c1cncc(Br)c1 (stereo not drawn)
 : 1.8	-0.16
CC1(C)SC(=S)N(/N=C/c2ccco2)C1N(O)C(=O)Nc1ccc(Cl)c(Cl)c1 (stereo not drawn)
 : .	-0.66
O=C1C(c2ccccc2)NC(=S)N1C1CCCCC1 (stereo not drawn)
 : -0.45	.
COc1ccccc1OCCOc1c(Cl)cc(C=C2C(=O)N(C)C(=O)N(C)C2=O)cc1OC
 : .	-0.53
Clc1ccc(N=Cc2ccccc2)cc1
 : -0.95	-0.085
CN(C)S(=O)(=O)c1ccc(N2CCCC2)c(C(=O)NCc2ccccc2)c1
 : -0.9	.
Cc1cccc(OCCn2c(CO)nc3ccccc32)c1
 : -0.65	0.005
CCOC(=O)c1[nH]c(C)c(C2C(C#N)=C(N)OC3=C2C(=O)CCC3)c1C (stereo not drawn)
 : 0.05	0.58
CC1(C)OC(=O)C(=CNc2ccccn2)C(=O)O1
 : .	-0.34
COc1ccc(OC)c(CCNC(=O)C2CCCN(c3nc4ccccc4[nH]3)C2)c1 (stereo not drawn)
 : 0.45	-0.61
N#CC1=C([S-])N[C@@](O)(c2ccccc2)[C@H]([n+]2ccc3ccccc3c2)[C@H]1c1ccncc1
 : .	5.7
O=C1CSC(c2cccnc2)N1c1ccc(-c2csnn2)cc1 (stereo not drawn)
 : -0.6	0.66
C=CCn1c(SCC(=O)OCC)nnc1C(C)C
 : -0.15	-0.34
O=C(NCCS(=O)(=O)Cc1ccc(F)cc1)c1c(F)cccc1Cl
 : 0.3	0.36
CN(C(=O)c1cc(C(C)(C)C)nn1C)c1nnc(C(F)(F)F)s1
 : 0.1	-1.3
CCOC(=O)c1c(-c2ccccc2)csc1NC(=O)c1sc2cc(F)ccc2c1Cl
 : .	-0.17
Nc1ccc(-c2nc3ccccc3n2CCCOc2ccccc2)cc1
 : -0.35	-0.18
O=C(c1cccs1)N1CCN(c2cc(=O)[nH]nc2-c2ccccc2)CC1
 : .	-0.4
COCCOC(=O)C1=C(C)NC(=S)NC1c1ccc(C)c(OC)c1 (stereo not drawn)
 : -0.45	.
Cc1cc2cc(CNC(=O)Cc3cccs3)ccc2n1C
 : 0.85	-0.13
Cc1cc(C(F)(F)F)n2nc(-c3ccccc3)cc2n1
 : -0.15	-0.11
COc1ccc(Cl)cc1NC(=O)CSc1nnc(C)s1
 : .	-0.07
C=CCNC(=O)Cn1c(C(F)(F)F)nc2ccccc21
 : -0.25	-0.5
O=C(COc1ccc(Cl)cc1)OCC(=O)N1CCc2ccccc2C1
 : -0.3	0.025
COc1cc(OC)c(C(F)(F)F)cc1[N+](=O)[O-]
 : .	-0.47
CCc1ccc(C(N)=S)cc1
 : 0.35	.
COc1cc(C2Nc3ccccc3NC3=C2C(=O)CC(c2ccccc2)C3)cc(Br)c1OC (stereo not drawn)
 : .	-1.1
Cc1cc2cc(CCNC(=O)/C=C\c3ccccc3)c(=O)[nH]c2cc1C
 : -0.2	46
CN1C(=O)c2oc3ccccc3c(=O)c2C1c1ccccc1 (stereo not drawn)
 : -0.65	-0.065
O=C(O)C1C2CCC(C2)C1C(=O)N1CCN(c2ncccn2)CC1 (stereo not drawn)
 : -0.5	0.56
O=C(c1ccc(Sc2ccc(Cl)cc2)c([N+](=O)[O-])c1)N1CCOCC1
 : .	0.17

The closing 2 compounds of the part above open the next one:
Each structure is followed by: AID504770	Ba CapD inh
O=C(O)C1C2CCC(C2)C1C(=O)N1CCN(c2ncccn2)CC1 (stereo not drawn)
 : -0.5	0.56
O=C(c1ccc(Sc2ccc(Cl)cc2)c([N+](=O)[O-])c1)N1CCOCC1
 : .	0.17
COc1ccc(C2CC(=O)C3=C(C2)Nc2ccccc2NC3c2cc(OC)c(Br)cc2OC)cc1 (stereo not drawn)
 : .	1.6
COc1ccc(/C=C2\SC(N3CCN(C(=O)CCN4C(=O)/C(=C\c5cccs5)SC4=S)CC3)=NC2=O)cc1
 : .	0.27
CC(C)(C)c1cc(N/C(=N\S(=O)(=O)c2ccccc2)c2ccccc2)no1
 : 0.7	0.64
O=C(Cc1ccsc1)OCc1csc(-c2ccccc2)n1
 : -0.45	.
COc1ccc(Cn2c(=O)oc3ccc(C)cc32)cc1
 : -0.1	0.33
c1ccc(OCC2CCNCC2)nc1
 : 1.5	.
O=C(NCC1COc2ccccc2O1)c1ccc(S(=O)(=O)N2CCCCC2)cc1 (stereo not drawn)
 : 0.75	.
CCNC(=O)c1ccc(C)c(S(=O)(=O)N2CCCC2)c1
 : 2.8	-0.59
COCCCNc1nc(-c2ccc([N+](=O)[O-])cc2)nc2ccccc12
 : .	-0.35
O=C(CCc1nc2ccccc2c(=O)[nH]1)Nc1ccccc1C(=O)NC1CC1
 : 0.3	.
CC(C)(C)C(=O)CCN1C(=O)C2(OCCO2)c2ccccc21
 : .	-0.47
COc1ccc2nc(N3CCOCC3)[nH]c2c1
 : 0.2	-0.1
C=CCN=C(N)SCc1nc2ccccc2c(=O)[nH]1
 : 1.4	-0.47
CCCCC1=NN2C(=N)/C(=C\c3cccn3-c3ccc(C)cc3C)C(=O)N=C2S1
 : 0.7	0.95
CN1C(C(=O)NC(C)(C)C)=CC(c2ccc(F)cc2)=NS1(=O)=O
 : -0.65	0.78
CCC(C)NC(=O)Cn1ncc2c(=O)oc3ccc(C)cc3c21 (stereo not drawn)
 : -0.15	-0.34
Cc1ccccc1NC(=O)C1C2c3ccccc3OC1(C)N=C1SCC(=O)N12 (stereo not drawn)
 : -0.5	0.16
C=C1SC(=Nc2cc(C)c(C)c(C)c2)N(C(=O)c2c(F)cccc2F)C1(C)C
 : .	0.14
COC(=O)Cc1nc(-c2ccc(-c3ccon3)s2)sc1C
 : 0.8	107
CN1CCC(N(C)Cc2cc(C(C)(C)C)c(O)c(C(C)(C)C)c2)CC1
 : 0.5	.
O=C1C=C(SCc2c(F)cccc2Cl)CC(c2ccccc2)C1 (stereo not drawn)
 : -0.7	0.02
COC(=O)c1ccc(Cl)cc1N(Cc1ccccc1)S(C)(=O)=O
 : .	-0.08
CC1CN2c3ccccc3C(C)(C)C2(/C=C/c2ccc(N(C)C)cc2)NC1=O (stereo not drawn)
 : .	-0.3
COC(=O)c1ccc(COC(=O)c2oc3ccc(OC)cc3c2C)o1
 : 0.4	.
Cc1cc(C)nc(N(C)c2ccc(NC(=O)C(C)(C)C)cc2)n1
 : .	-0.045
CC(=O)Oc1ccc(C(=O)O)cc1OC(C)=O
 : 0.15	.
O=C(NC1CCCc2ccccc21)c1cc2ccccc2o1 (stereo not drawn)
 : -0.35	.
O=C(Nc1cnc2sccn2c1=O)c1ccccc1
 : 0.75	-1.2
COc1ccc(NC(=O)CCS(=O)(=O)c2cc(Br)cc3c2N(C(=O)C2CC2)CC3)cc1OC
 : -0.35	-0.27
CC1CN(CCC(=O)Nc2ccc3c(c2)OCCO3)CC(C)O1 (stereo not drawn)
 : 1.4	-1

The final 2 entries of the section before are carried over, then new ones follow:
Each structure is followed by: AID504770	Ba CapD inh
COc1ccc(NC(=O)CCS(=O)(=O)c2cc(Br)cc3c2N(C(=O)C2CC2)CC3)cc1OC
 : -0.35	-0.27
CC1CN(CCC(=O)Nc2ccc3c(c2)OCCO3)CC(C)O1 (stereo not drawn)
 : 1.4	-1
CCOC(=O)c1cnc2nc(CCc3ccccc3)[nH]n2c1=O
 : -0.25	.
CCOC(=O)C1=c2s/c(=C/c3ccccc3F)c(=O)n2C(N)=C(C#N)C1c1ccccc1F (stereo not drawn)
 : .	-0.79
CSc1nc2nc(-c3cccc(C(F)(F)F)c3)ccn2n1
 : -0.55	0.81
c1ccc2c(c1)Cc1cc3ccccc3nc1-2
 : .	7.6
COc1cccc(OCC(=O)Oc2ccc(C#N)cc2)c1
 : 2	-0.49
O=C(NCCc1ccccc1)c1ccc(=O)[nH]n1
 : -0.2	.
CNCc1cc2ccccc2o1
 : -1.2	-0.42
O=C(COC(=O)c1cc2c3c(c1)C1C=CCC1CN3CC1CC=CC21)c1ccc(Cl)cc1 (stereo not drawn)
 : .	6
O=S(=O)(NCCCn1ccnc1)c1ccc2ccccc2c1
 : -0.3	2.4
Cc1ccc2c(=O)c(C(=O)c3ccccc3)cn(CC(N)=O)c2n1
 : -0.2	-0.6
CCOC(=O)c1cc(C)[nH]c(=S)c1C#N
 : -0.5	-0.09
COc1nnc(-c2ccccc2)c2ccccc12
 : 0.05	0.48
CCc1ccc(S(=O)(=O)Nc2ccncc2)cc1
 : -0.55	0.1
O=C(NC1CCN(Cc2ccccc2)CC1)C1=Cc2cc(Cl)ccc2OC1
 : -0.5	-0.88
NC(=O)C1CCN(C(=O)c2sc3ccccc3c2Cl)CC1
 : 1.5	0.7
CCOC(=O)c1cc(-c2ccc(S(=O)(=O)N(Cc3cccs3)C3CCCCC3)s2)on1
 : 0.1	0.69
CNc1nc(-c2ccc(O)cc2O)cs1
 : -1.3	.
CC(C)Cn1c(SCC(=O)NCC(F)(F)F)nc2ccccc21
 : -0.1	.
COc1cc(NC(=O)[C@@H](NC(=O)c2cc(OC)cc(OC)c2)C(C)C)cc(OC)c1
 : 0.5	.
CC(C)(C)C(=O)[C@@H]1[C@H]2C3COC(O3)C(=O)[C@@H]2[C@H]2C=Cc3ccccc3N21 (stereo partly drawn)
 : .	5.9
CCOc1ccc(C2CC(=O)NC(SCC(=O)Nc3cccc(OC)c3)=C2C#N)cc1 (stereo not drawn)
 : -0.4	-0.33
CN(C)C(=O)C12CCC(C)(C(=O)O1)C2(C)C (stereo not drawn)
 : .	-0.11
Cc1ccn2c(=O)cc(CNCC(c3ccco3)N3CCCCC3)nc2c1 (stereo not drawn)
 : 0.55	.
CCCCCCc1cc2cc(-c3cc4c(c(C)[nH]3)c(=O)oc3cc(=O)c(CCCCCC)cc34)c(=O)oc2cc1O
 : .	0.11
CC(Sc1nnc(-c2ccc3c(c2)OCO3)o1)C(N)=O (stereo not drawn)
 : -0.4	.
O=C(O)c1cc(-c2ccccc2Cl)on1
 : -0.65	-1
CNc1nnc(-c2cc3cccc(OC)c3oc2=O)s1
 : .	0.98
COC(=O)c1c(C(=O)OC)c(-c2cccc(F)c2)n2c1CS(=O)C2 (stereo not drawn)
 : .	-0.37

Record cards, from the list above:
Results for CCCCCCc1cc2cc(-c3cc4c(c(C)[nH]3)c(=O)oc3cc(=O)c(CCCCCC)cc34)c(=O)oc2cc1O → AID504770 = .; Ba CapD inh = 0.11
Results for CNCc1cc2ccccc2o1 → AID504770 = -1.2; Ba CapD inh = -0.42
Results for CCc1ccc(S(=O)(=O)Nc2ccncc2)cc1 → AID504770 = -0.55; Ba CapD inh = 0.1

Only part of the results is shown, so the mix of outcomes need not match the whole.
